NOMO-1 viab: STK33 inhibitor candidate reducing NOMO-1 cell viability; NOMO-1 AML viability, CellTiter-Glo luminescence, 72 h; 7.5% of 37,000 active; AID 2330; inhibition, % (concentration not given with the values);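 active means most replicates above 80%; inconclusive means exactly half above 80%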;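 further: wells of about 30 µL received 25 nL stock; 0% = median of vehicle wells and 100% = reference inhibitor level; the first replicate is given; inactives centre near 10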
The depositor's hits bear a star; ? = inconclusive. A portion of the library; the hit share may differ from the screen's.

SMILES | NOMO-1 viab
Cn1c(C(C#N)C(=O)c2ccccc2I)nc2ccccc21 (stereo unspecified) | 44.6
Cc1ccc(S(=O)(=O)Nc2cccc3c2O[C@H](CN(C)C(=O)Nc2ccc4c(c2)OCO4)[C@@H](C)CN([C@H](C)CO)C3=O)cc1 | 12.2
C[C@@H]1CN([C@H](C)CO)C(=O)c2cccc(NS(=O)(=O)c3ccc(F)cc3)c2O[C@@H]1CN(C)C(=O)NC1CCCCC1 | 24.3
C[C@@H]1CN([C@H](C)CO)C(=O)c2cccc(NC(=O)C3CCCCC3)c2O[C@H]1CN(C)Cc1ccc(C(=O)O)cc1 | 8.4
Cc1ccc(Cl)cc1NC(=O)C1CC=CCC1C(=O)O (stereo unspecified) | -12.1
Cc1noc(C)c1S(=O)(=O)Nc1ccc2c(c1)C(=O)N([C@H](C)CO)C[C@@H](C)[C@@H](CN(C)Cc1ccncc1)O2 | 10.7
C[C@@H]1CN([C@H](C)CO)C(=O)Cc2cc(NC(=O)Cc3ccccc3)ccc2O[C@@H]1CN(C)S(C)(=O)=O | 11.3
C[C@H]1CN([C@@H](C)CO)C(=O)c2cccc(NC(=O)C3CCOCC3)c2O[C@@H]1CN(C)Cc1ccc(C(=O)O)cc1 | 14.0
C[C@@H]1CCCCO[C@@H](CN(C)C(=O)Nc2ccc(C(F)(F)F)cc2)[C@@H](C)CN([C@H](C)CO)C(=O)c2cc(NS(=O)(=O)c3ccc(F)cc3)ccc2O1 | 110.0*
C[C@H]1CN([C@@H](C)CO)C(=O)c2cc(NC(=O)Nc3ccc(C(F)(F)F)cc3)ccc2O[C@H]1CN(C)S(=O)(=O)c1ccccc1 | 97.4*
COc1ccc(NC(=O)Nc2ccc3c(c2)C(=O)N([C@@H](C)CO)C[C@H](C)[C@H](CN(C)S(=O)(=O)c2ccc(Cl)cc2)O3)cc1 | 43.9
C[C@@H]1CN([C@@H](C)CO)C(=O)Cc2cc(NS(=O)(=O)c3ccc(F)cc3)ccc2O[C@@H]1CN(C)Cc1ccc(-c2ccccc2)cc1 | ?
C[C@@H]1CN([C@H](C)CO)C(=O)Cc2cc(NS(C)(=O)=O)ccc2O[C@@H]1CN(C)S(=O)(=O)c1ccccc1 | -1.1
Cc1noc(C)c1NC(=O)Nc1ccc2c(c1)CC(=O)N([C@H](C)CO)C[C@H](C)[C@H](CN(C)S(=O)(=O)c1cn(C)cn1)O2 | 6.9
C[C@@H]1CN([C@@H](C)CO)C(=O)c2cccc(NC(=O)Nc3ccccc3)c2O[C@H]1CN(C)C | -12.5
COc1ccc(S(=O)(=O)N(C)C[C@H]2OCCCC[C@@H](C)Oc3ccc(NS(=O)(=O)c4ccc(C)cc4)cc3C(=O)N([C@H](C)CO)C[C@@H]2C)cc1 | 15.4
C[C@H](CO)N1C[C@H](C)[C@H](CN(C)S(=O)(=O)c2ccccc2)Oc2ccc(NC(=O)Nc3cccc4ccccc34)cc2C1=O | 47.5
C[C@H]1CN([C@@H](C)CO)C(=O)Cc2cc(N(C)C)ccc2O[C@H]1CN(C)CC1CC1 | 4.7
O=C(c1ccc(Br)cc1)N1Cc2ccccc2NC1=S | 125.0*
COc1ccc(S(=O)(=O)Nc2ccc3c(c2)C(=O)N([C@H](C)CO)C[C@@H](C)[C@@H](CN(C)S(=O)(=O)c2cn(C)cn2)O3)cc1 | 10.0
O=C(NCc1ccccn1)C(=O)Nc1ccccc1F | -4.7
COc1ccc(C2(CNC(=O)CC#N)CCCC2)cc1OC | -18.7
C[C@H]1CN([C@@H](C)CO)C(=O)c2cc(NS(=O)(=O)c3cn(C)cn3)ccc2O[C@@H]1CN(C)Cc1ccc(-c2ccccc2)cc1 | 10.1
COc1ccc(S(=O)(=O)N(C)C[C@H]2Oc3ccc(NC(=O)Nc4cccc5ccccc45)cc3C(=O)N([C@H](C)CO)C[C@H]2C)cc1 | -13.1
C[C@H]1CN([C@@H](C)CO)C(=O)c2cc(NC(=O)C3CC3)ccc2O[C@@H]1CN(C)Cc1ccccc1 | -5.6
SMILES | NOMO-1 viab
Cc1ccc2oc(-c3ccc(C)c(NC(=O)COc4ccc(Br)cc4)c3)nc2c1 | 43.6
C[C@@H]1CN([C@H](C)CO)C(=O)Cc2cc(NS(=O)(=O)c3ccccc3)ccc2O[C@H]1CN(C)S(=O)(=O)c1ccccc1 | -5.6
C[C@@H]1CN([C@H](C)CO)C(=O)c2cccc(NS(=O)(=O)c3ccccc3)c2O[C@H]1CN(C)C(=O)Nc1ccc(C(F)(F)F)cc1 | -8.3
C[C@@H]1CN([C@@H](C)CO)C(=O)c2cc(NC(=O)Cc3cn(C)c4ccccc34)ccc2O[C@@H]1CN(C)C(=O)Nc1ccc2c(c1)OCO2 | 10.4
Cc1ccc(S(=O)(=O)N(C)C[C@H]2Oc3c(cccc3N(C)C)C(=O)N([C@@H](C)CO)C[C@@H]2C)cc1 | -7.1
Cc1nnc(SCC(=O)Nc2ccc([N+](=O)[O-])cc2O)s1 | 28.1
CNC[C@@H]1Oc2ccc(NS(=O)(=O)c3cn(C)cn3)cc2CC(=O)N([C@H](C)CO)C[C@H]1C | -6.1
COC(=O)c1ccc(NC(=O)CN(c2ccccc2Br)S(C)(=O)=O)cc1 | 14.9
COc1ccc(OCC(=O)Nc2ccc(C)cc2[N+](=O)[O-])cc1 | -17.2
CCOC(=O)c1c(NC(=O)COc2cc(C)ccc2C)sc(C)c1C | -0.2
C[C@H](CO)N1C[C@H](C)[C@H](CN(C)Cc2ccc(C(=O)Nc3ccccc3N)cc2)Oc2c(NC(=O)c3ccncc3)cccc2C1=O | 51.3
CC(C)NC(=O)Nc1ccc2c(c1)CC(=O)N([C@@H](C)CO)C[C@@H](C)[C@@H](CN(C)Cc1ccc(Oc3ccccc3)cc1)O2 | 89.0*
Nc1ccc(-c2nc3ccccc3s2)cc1 | 24.7
C[C@H]1CN([C@@H](C)CO)C(=O)Cc2cc(NC(=O)CCC(F)(F)F)ccc2O[C@H]1CN(C)C(=O)Nc1ccc2c(c1)OCO2 | 8.8
C[C@H](CO)N1C[C@H](C)[C@H](CN(C)Cc2ccc(-c3ccccc3)cc2)Oc2ccc(NC(=O)Nc3ccc4c(c3)OCO4)cc2C1=O | 13.6
C[C@H](CO)N1C[C@H](C)[C@@H](CN(C)S(C)(=O)=O)Oc2c(NC(=O)Nc3ccc4c(c3)OCO4)cccc2C1=O | 8.6
C[C@@H]1CN([C@H](C)CO)C(=O)c2cccc(N(C)C)c2O[C@H]1CN(C)Cc1ccc(-c2ccccc2)cc1 | 86.5*
CCCOc1ccc(C(=O)C2C(=O)C(=O)N(c3nc(C)c(C(=O)OC)s3)C2c2ccco2)cc1 (stereo unspecified) | -5.2
COc1ccc(NC(=O)N(C)C[C@@H]2Oc3ccc(NS(=O)(=O)c4ccc(F)cc4)cc3C(=O)N([C@H](C)CO)C[C@H]2C)cc1 | 10.9
C[C@@H]1CCCCO[C@@H](CN(C)S(=O)(=O)c2ccc(Cl)cc2)[C@@H](C)CN([C@H](C)CO)C(=O)c2cc(NC(=O)Nc3ccccc3)ccc2O1 | 43.5
COc1ccc(S(=O)(=O)N(C)C[C@H]2Oc3ccc(NC(=O)Nc4ccc(F)cc4)cc3C(=O)N([C@H](C)CO)C[C@@H]2C)cc1 | 1.3
COC(=O)c1sccc1NC(=O)c1cc(-c2ccccn2)nc2ccc(Br)cc12 | 10.4
C=CCn1c(=O)c(C(=O)NCc2ccccn2)c(O)c2ccccc21 | -12.4
CC(C)c1ccc(OCC(=O)Nc2ccccc2-c2nc3ccccc3s2)cc1 | 23.4
C[C@@H]1CN([C@H](C)CO)C(=O)c2cccc(NC(=O)C3CCCCC3)c2O[C@@H]1CN(C)Cc1ccc(-c2ccccc2)cc1 | 109.7*

Next part; the last 2 above are carried over.
SMILES | NOMO-1 viab
CC(C)c1ccc(OCC(=O)Nc2ccccc2-c2nc3ccccc3s2)cc1 | 23.4
C[C@@H]1CN([C@H](C)CO)C(=O)c2cccc(NC(=O)C3CCCCC3)c2O[C@@H]1CN(C)Cc1ccc(-c2ccccc2)cc1 | 109.7*
C[C@@H]1CN([C@H](C)CO)C(=O)c2cc(NC(=O)Nc3ccc4c(c3)OCO4)ccc2O[C@@H]1CN(C)C(=O)NC1CCCCC1 | -0.1
C[C@H]1CN([C@@H](C)CO)C(=O)c2cccc(NC(=O)c3ccc(-c4nccs4)cc3)c2O[C@@H]1CN(C)S(C)(=O)=O | 1.7
COc1ccc(CC(=O)Nc2cccc(-c3nc4cc5ccccc5cc4[nH]3)c2)cc1 | 135.0*
C[C@@H]1CN([C@@H](C)CO)C(=O)c2cc(NC(=O)Nc3ccc(C(F)(F)F)cc3)ccc2O[C@H]1CN(C)Cc1ccc(Cl)c(Cl)c1 | 115.5*
COc1ccccc1C1C(C(=O)c2ccco2)C(=O)C(=O)N1c1cc(C)on1 (stereo unspecified) | 0.5
C[C@H]1CN([C@@H](C)CO)C(=O)c2cccc(NC(=O)Nc3ccc(C(F)(F)F)cc3)c2O[C@@H]1CN(C)S(=O)(=O)c1cn(C)cn1 | 11.6
CS(=O)(=O)N(CC(=O)Nc1ccc(Oc2ccccc2)cc1)c1ccc2c(c1)OCCO2 | 28.9
O=C(COc1ccc(Br)cc1)NCC1CCCO1 (stereo unspecified) | 2.7
C[C@@H]1CN([C@H](C)CO)C(=O)c2cc(NC(=O)Nc3ccc(C(F)(F)F)cc3)ccc2O[C@H]1CN(C)Cc1ccc(C(=O)Nc2ccccc2N)cc1 | 53.9
Cc1ccc(S(=O)(=O)N(C)C[C@H]2Oc3ccc(NC(=O)Cn4cnnn4)cc3C(=O)N([C@H](C)CO)C[C@H]2C)cc1 | 18.9
COc1ccccc1CCNC(=O)c1cc(-c2ccc(C)o2)nc2ccccc12 | 24.6
C[C@@H]1CN([C@@H](C)CO)C(=O)c2cc(NC(=O)Nc3ccc4c(c3)OCO4)ccc2O[C@@H]1CN(C)Cc1ccc2c(c1)OCO2 | 28.2
Cc1c(Cl)cccc1NC(=O)CCN1C(=O)c2ccc([N+](=O)[O-])cc2C1=O | 12.7
Cc1ccc(S(=O)(=O)Nc2ccc3c(c2)CC(=O)N([C@H](C)CO)C[C@@H](C)[C@H](CN(C)S(=O)(=O)c2ccc(F)cc2)O3)cc1 | 31.6
COc1ccc(S(=O)(=O)N(C)C[C@H]2Oc3c(NC(=O)C4CC4)cccc3C(=O)N([C@@H](C)CO)C[C@H]2C)cc1 | 30.3
C[C@H]1CN([C@@H](C)CO)C(=O)Cc2cc(NS(=O)(=O)c3ccc(F)cc3)ccc2O[C@@H]1CN(C)C(=O)NC1CCCCC1 | 5.3
Cc1cc([N+](=O)[O-])ccc1NC(=O)CSc1nnc(-c2ccccc2)o1 | -8.2
Cc1noc(C)c1S(=O)(=O)Nc1ccc2c(c1)CC(=O)N([C@@H](C)CO)C[C@@H](C)[C@@H](CN(C)S(=O)(=O)c1ccc(Cl)cc1)O2 | -3.3
Cc1noc(C)c1NC(=O)N(C)C[C@@H]1Oc2ccc(NC(=O)Cn3cnnn3)cc2CC(=O)N([C@H](C)CO)C[C@H]1C | 12.8
Cc1ccc(S(=O)(=O)N(C)C[C@H]2Oc3ccc(NC(=O)Cc4ccccc4)cc3C(=O)N([C@H](C)CO)C[C@H]2C)cc1 | 4.7
C[C@@H]1CCCCO[C@H](CN(C)C(=O)c2ccccc2)[C@@H](C)CN([C@H](C)CO)C(=O)c2cc(NS(C)(=O)=O)ccc2O1 | -1.9
C[C@@H]1CCCCO[C@H](CN(C)S(=O)(=O)c2cn(C)cn2)[C@@H](C)CN([C@H](C)CO)C(=O)c2cc(NS(=O)(=O)c3cn(C)cn3)ccc2O1 | -6.9
Cc1ccc(S(=O)(=O)NCC(=O)Nc2ccc(Br)cc2F)cc1 | -11.6
C[C@H]1CN([C@@H](C)CO)C(=O)Cc2cc(NS(=O)(=O)c3cn(C)cn3)ccc2O[C@H]1CN(C)CC1CC1 | 3.3
C[C@@H]1CN([C@@H](C)CO)C(=O)c2cc(NC(=O)Nc3ccc4c(c3)OCO4)ccc2O[C@@H]1CN(C)Cc1ccc(C(=O)Nc2ccccc2N)cc1 | 108.2*
SMILES | NOMO-1 viab
COC(=O)c1ccccc1NC(=O)COc1cc(C)c(Br)c(C)c1 | -4.0
O=C(Cc1ccccc1[N+](=O)[O-])Nc1ccc(S(=O)(=O)N2CCCCC2)cc1 | 11.9
O=C(O)c1cc(NC(=O)C2CC=CCC2C(=O)O)ccc1Cl (stereo unspecified) | 19.8
O=C(Cn1c(-c2ccccn2)nc2ccccc21)NCCN1CCOCC1 | 0.6
Cc1ccc(S(=O)(=O)Nc2ccc3c(c2)C(=O)N([C@H](C)CO)C[C@H](C)[C@H](CN(C)C)OCCCC[C@@H](C)O3)cc1 | 20.0
COc1ccc(S(=O)(=O)N(C)C[C@H]2Oc3ccc(NC(=O)c4ccncc4)cc3CC(=O)N([C@@H](C)CO)C[C@@H]2C)cc1 | 15.5
CCN(CC(=O)Nc1cccc(Cl)c1)S(=O)(=O)c1ccc(Br)cc1 | 11.0
COc1cc(C(=O)NCc2ccco2)cc(OC)c1OC | 1.4
COc1ccc(OCC(=O)Nc2ccc(-c3nc4ccc(C)cc4o3)cc2)cc1 | 17.4

For reference, some entries already given.
SMILES | NOMO-1 viab
O=C(Cn1c(-c2ccccn2)nc2ccccc21)NCCN1CCOCC1 | 0.6
Cc1ccc(S(=O)(=O)Nc2ccc3c(c2)C(=O)N([C@H](C)CO)C[C@H](C)[C@H](CN(C)C)OCCCC[C@@H](C)O3)cc1 | 20.0
COc1ccc(S(=O)(=O)N(C)C[C@H]2Oc3ccc(NC(=O)c4ccncc4)cc3CC(=O)N([C@@H](C)CO)C[C@@H]2C)cc1 | 15.5
CCN(CC(=O)Nc1cccc(Cl)c1)S(=O)(=O)c1ccc(Br)cc1 | 11.0
COc1cc(C(=O)NCc2ccco2)cc(OC)c1OC | 1.4
COc1ccc(OCC(=O)Nc2ccc(-c3nc4ccc(C)cc4o3)cc2)cc1 | 17.4

Compound activity deposited in PubChem BioAssay by Broad Institute.
